# Kir21 inh: inhibitors of mouse Kir2.1 inward-rectifier potassium channel. AID 1672, 2009. Inward rectifier potassium channel 2 (Mus musculus), P35561. 310,000 tested, 0.85% active. HEK293-Kir2.1, FluxOR thallium flux fluorescence; hits give low values. B-score at 10 µM;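 active means fluorescence ratio B-score at or below minus 3 SD of library scores, with starting-brightness B-score within 2 SD, cut at about -4.2 in these data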;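 further: channel flux triggered by added potassium and thallium sulfate stimulus; B-score of peak minus minimum fluorescence over baseline after thallium stimulus; more negative B-score means stronger Kir2.1 block with less thallium influx; some compounds called inactive have numbers as strong as hits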
# Target sequence (P35561 whole entry, looked up): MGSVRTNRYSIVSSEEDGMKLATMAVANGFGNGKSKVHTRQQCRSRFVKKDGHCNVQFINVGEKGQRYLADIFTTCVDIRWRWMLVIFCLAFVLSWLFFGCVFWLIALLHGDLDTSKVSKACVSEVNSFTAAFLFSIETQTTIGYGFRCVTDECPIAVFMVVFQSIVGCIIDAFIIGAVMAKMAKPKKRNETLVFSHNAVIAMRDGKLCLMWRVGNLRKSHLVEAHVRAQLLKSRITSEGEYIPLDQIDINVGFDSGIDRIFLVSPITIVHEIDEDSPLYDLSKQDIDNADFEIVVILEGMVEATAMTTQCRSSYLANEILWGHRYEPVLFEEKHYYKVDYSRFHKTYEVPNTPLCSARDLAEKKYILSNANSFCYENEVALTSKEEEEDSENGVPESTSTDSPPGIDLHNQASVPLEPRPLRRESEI
# * marks the source's active call; other numbers are inactive results.
1. C=CCOC(=O)C1=C(C)OC(N)=C(C(=O)OCC)C12C(=O)N(CC(N)=O)c1ccccc12 (stereo not given)
  Kir21 inh = 0.76
2. CC(=O)Nc1ccc(OC(=O)N(C)c2ccccc2)cc1
  Kir21 inh = 0.12
3. CCN(CC)C(=O)c1ccc2c(c1)C1C=CCC1C(C(=O)O)N2 (stereo not given)
  Kir21 inh = 0.42
4. COc1ccc(-n2c(=O)[nH]c3ccccc3c2=O)cc1
  Kir21 inh = 0.14
5. O=C(Cc1ccccc1)Oc1ccccc1N1C(=O)CCC1=O
  Kir21 inh = -0.3
6. O=c1[nH]c(=O)n(Cc2ccc(F)cc2)c(O)c1C=NCCCn1ccnc1
  Kir21 inh = -0.14
7. CCCC(C)n1[nH]c(=O)c2c1NC(=O)CSC2c1ccc(OC)c(OC)c1 (stereo not given)
  Kir21 inh = 1.9
8. Clc1ccccc1CN1CCN(c2ccccc2Cl)CC1
  Kir21 inh = 2.9
9. Cc1cccc(-n2c(C)nc3ccccc3c2=O)n1
  Kir21 inh = -0.13
10. CCCCn1c(=O)c(C(=O)NCc2ccncc2)c(O)c2ccccc21
  Kir21 inh = 0.36

# Entries by screen from the entries so far:
# Kir21 inh, entries 2–7: 0.12, 0.42, 0.14, -0.3, -0.14, 1.9

# The list goes on:
11. CCC(=O)N1N=C(c2c(O)n(CCc3ccccc3)c(=O)[nH]c2=O)CC1c1ccc(OC)c(OC)c1 (stereo not given)
  Kir21 inh = 0.65
12. CCCOC(=O)C1C2c3ccccc3C(c3ccccc32)C1C(=O)O (stereo not given)
  Kir21 inh = 0.83
13. CCN1C(=O)/C(=C/c2ccc3c(c2)CCN3CCCCl)C(=O)NC1=S
  Kir21 inh = -0.22
14. CC1(C)OC(c2ccccc2)=C/C(=C/C=C2C(=O)NC(=O)NC2=O)O1
  Kir21 inh = -0.46
15. COc1ccc(C(c2c(O)c3ccccc3oc2=O)c2c(C)n(C)n(-c3ccccc3)c2=O)cc1 (stereo not given)
  Kir21 inh = 0.84
16. Cc1nc2ccc(Cl)cc2c(=O)n1-c1ccc([N+](=O)[O-])cc1
  Kir21 inh = -0.1
17. COc1ccc(CC2C(=O)N(c3ccccc3)C(=O)N(c3ccccc3)C2=O)c(OC)c1
  Kir21 inh = -0.18
18. COc1ccc(OC)c(CNCCc2ccc(OC)c(OC)c2)c1
  Kir21 inh = -1.3
19. COc1ccc(P2(=O)Nc3ccccc3N2)cc1
  Kir21 inh = -2.1
20. Cc1cc(/C=C2\C(=O)NC(=O)N(c3cccc(Br)c3)C2=O)c(C)n1C
  Kir21 inh = -0.53

# Retrieved one by one from the list above (two):
13. CCN1C(=O)/C(=C/c2ccc3c(c2)CCN3CCCCl)C(=O)NC1=S
  Kir21 inh = -0.22
12. CCCOC(=O)C1C2c3ccccc3C(c3ccccc32)C1C(=O)O (stereo not given)
  Kir21 inh = 0.83

# Some of the entries so far, with tabs.
nr	SMILES	Kir21 inh
13	CCN1C(=O)/C(=C/c2ccc3c(c2)CCN3CCCCl)C(=O)NC1=S	-0.22
14	CC1(C)OC(c2ccccc2)=C/C(=C/C=C2C(=O)NC(=O)NC2=O)O1	-0.46
15	COc1ccc(C(c2c(O)c3ccccc3oc2=O)c2c(C)n(C)n(-c3ccccc3)c2=O)cc1 (stereo not given)	0.84
16	Cc1nc2ccc(Cl)cc2c(=O)n1-c1ccc([N+](=O)[O-])cc1	-0.1
17	COc1ccc(CC2C(=O)N(c3ccccc3)C(=O)N(c3ccccc3)C2=O)c(OC)c1	-0.18

# Continuation.
21. Cc1ccc(/C=C2/C(=O)NC(=O)N(Cc3ccc(F)cc3)C2=O)o1
  Kir21 inh = 0.2
22. CCOc1cc(C2NCc3ccccc3-n3cccc32)ccc1OC (stereo not given)
  Kir21 inh = -1.2
23. Cc1cccc(-n2c(O)c(/C=N/Nc3nc4c(c(=O)n(C)c(=O)n4C)n3C)c(=O)[nH]c2=S)c1
  Kir21 inh = -0.38
24. Nc1ccccc1C(=O)c1ccccc1
  Kir21 inh = 2.2
25. O=P(O)(O)COc1ccccc1O
  Kir21 inh = -1.3
26. Nc1nnc(CCN2CCCCC2)s1
  Kir21 inh = 2.9
27. Cc1nc2ccccc2c(=O)n1-c1ccccn1
  Kir21 inh = -1.1
28. Cc1ccc(C2C(S(C)(=O)=O)=C(O)C(=O)N2c2ccccc2)cc1 (stereo not given) (tested in a mixture with another compound)
  Kir21 inh = 1.6
29. COc1cc(C)cc2oc(=O)c(CC(=O)N3C[C@H]4C[C@@H](C3)c3cccc(=O)n3C4)c(C)c12
  Kir21 inh = 0.25
30. CCNC(=O)NC(=O)C(C)OC(=O)c1c(C)nn(Cc2ccccc2)c1Cl (stereo not given)
  Kir21 inh = 0.04

# Exported bar-delimited: entries from further up.
no. | molecule | Kir21 inh
7 | CCCC(C)n1[nH]c(=O)c2c1NC(=O)CSC2c1ccc(OC)c(OC)c1 (stereo not given) | 1.9
8 | Clc1ccccc1CN1CCN(c2ccccc2Cl)CC1 | 2.9
9 | Cc1cccc(-n2c(C)nc3ccccc3c2=O)n1 | -0.13
10 | CCCCn1c(=O)c(C(=O)NCc2ccncc2)c(O)c2ccccc21 | 0.36
11 | CCC(=O)N1N=C(c2c(O)n(CCc3ccccc3)c(=O)[nH]c2=O)CC1c1ccc(OC)c(OC)c1 (stereo not given) | 0.65

# The listing continues:
31. CCCc1nnc(NC(=O)CCC(=O)N2CCN(CCOC(c3ccccc3)c3ccccc3)CC2)s1
  Kir21 inh = -0.02
32. C[C@]12CCC3C(CCC4=C/C(=N/OCC(=O)NC(CCC(N)=O)C(=O)O)CC[C@@]43C)C1CCC2O (stereo not given in full)
  Kir21 inh = 1.1
33. CCN1CCN(c2cc(=O)n3ccccc3n2)CC1
  Kir21 inh = 0.75
34. Fc1c(F)c(F)c(N2CCNCC2)c(F)c1F
  Kir21 inh = -2.4
35. O=C(NCCN1CCOCC1)c1ccc(Cl)nc1Cl
  Kir21 inh = 0.69
36. COC(=O)[C@@H]1[C@@H](C(=O)OC)C2(c3ccccc3-c3ccccc32)N(c2ccc(Cl)cc2)N1C#N
  Kir21 inh = 1
37. CCCCn1c(O)c(/C=N/NC(=O)c2ccncc2)c(=O)[nH]c1=S
  Kir21 inh = 0.02
38. CCCCn1c(O)c(C(C)=NC(Cc2c[nH]c3ccccc23)C(=O)OC)c(=O)[nH]c1=O (stereo not given)
  Kir21 inh = 0.5
39. CN1C(=O)N(C)C(=O)C2(Cc3cc(NC(=O)c4ccc(F)cc4)ccc3N3CCCC32)C1=O (stereo not given)
  Kir21 inh = 1.6
40. COC(=O)C1=C(c2cc3ccccc3s2)C[C@@H]2CC[C@H]1N2C(=O)NCCS(C)=O (stereo not given in full)
  Kir21 inh = -0.51
41. COc1ccc(/C=C2/C(=O)NC(=O)N(Cc3ccco3)C2=O)cc1
  Kir21 inh = 0.42

# These rows are one share of the data, and most or all hits are left out here.
